Assay outcomes deposited in PubChem by National Center for Advancing Translational Sciences (NCATS).
miR-21 reporter: miR-21 reporter, rising signal. Potency, µM (series often up to 38.3 µM), inactives show top-dose reporter change, positive = more light. HeLa miR-21 FLuc reporter, luciferase, 48 h. AID 2288. 340,000 tested, under 10 active; active = well fitted rising curve with a large enough effect; inconclusive = small, poorly fitted or top-dose-only effect; inactive = no such curve, though single readings can be large or run the other way;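 further: % of control where 0% means no effect; miR-21 action dims this reporter so a rising signal means less miR-21 action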
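HeLa cells endogenously expressing miR-21, stably carrying CMV-driven firefly luciferase with a downstream miR-21 binding site, 2000 cells/well. Titrations up to approximately 40 uM, 48 hours; luciferase luminescence read.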
Rango dissoc inh: inhibitors of RanGTP-induced Rango-importin beta complex dissociation; actives 0.071% (n = 340,000); AID 540253; Potency, µM (top dose mostly 46.1 µM), for inactives: top-dose activity change, negative = inhibition; Biochemical FRET Rango-importin beta, RanGTP-induced dissociation; active means falling FRET ratio curve, often poorly fitted, with flat reads before Ran was added; inconclusive means other falling curves, or compound fluorescence or quenching; inactive means flat or rising ratio curve;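 further: potency means the concentration at half of the fitted maximal effect; % of control where 0% means no effect; nearly all actives have a fitted effect of over 45% in size; -100% = wells without RanGTP and RCC1; the record marks most hits as doubtful in a second field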
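Quantitative HTS using a FRET biosensor: 0.1 uM Rango, 0.25 uM importin beta, 0.6 uM Ran, 2 mM GTP, 0.2 uM RCC1 final, PBS with DTT, Tween-20 and BSA. Post-read taken 45 min after Ran addition.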
GLA inh pH 4.5: alpha-galactosidase A (human) inhibition, pH 4.5; activity change, negative = inhibition, % at 105 µM; P06280; AID 1467; purified enzyme, 4-MU-alpha-Gal fluorescence, pH 4.5; 230,000 tested, under 10 active; inconclusive = small, poorly fitted or top-dose-only inhibition, or a rising curve; inactive = flat fitted curve, though single readings scatter; no compound was filed as active;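 further: 0% = full activity with enzyme and -100% = basal without enzyme; dose as in the result columns while the protocol names 77 µM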
Target sequence (P06280 whole entry, looked up): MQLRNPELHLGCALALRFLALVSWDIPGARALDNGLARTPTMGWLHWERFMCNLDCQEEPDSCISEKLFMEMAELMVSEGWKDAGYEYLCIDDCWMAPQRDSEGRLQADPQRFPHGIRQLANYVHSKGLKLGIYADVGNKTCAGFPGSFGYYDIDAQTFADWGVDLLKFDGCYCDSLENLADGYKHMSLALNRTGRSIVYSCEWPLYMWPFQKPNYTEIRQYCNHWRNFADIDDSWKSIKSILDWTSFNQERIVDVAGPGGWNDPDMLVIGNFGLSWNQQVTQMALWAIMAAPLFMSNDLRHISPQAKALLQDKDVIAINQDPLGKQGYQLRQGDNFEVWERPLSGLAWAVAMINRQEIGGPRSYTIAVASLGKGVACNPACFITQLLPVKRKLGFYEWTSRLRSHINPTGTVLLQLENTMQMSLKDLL
Rango complex inh: prevents formation of the Rango-importin beta complex; Rango CFP/YFP FRET sensor + importin beta, 45 min; Potency, µM (doses to about 92.2 µM), without a hit: at the highest dose inhibition of complex formation; actives 0.031% (n = 340,000); AID 540263; active = rising FRET ratio curve, often small or poorly fitted; inconclusive = mostly compound fluorescence or quenching in the first reads; inactive = flat curves in all reads;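 further: potency means the concentration at half of the fitted maximal effect; 0% = DMSO wells and 100% = buffer wells lacking importin beta; nearly all actives have a fitted effect of over 15% in size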
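FRET biosensor Rango (snurportin 1 IBB between N-terminal EYFP and C-terminal Cerulean), 50 nM in PBS/1 mM DTT/0.02% Tween-20/0.1% BSA, preincubated 5 min RT with compound; 0.125 microM importin beta added, 45 min RT, CFP/YFP FRET ratio read.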
Numbers without * were called inactive; ? = inconclusive; . = not tested or not shown; & = joins results of further samples.

miR-21 reporter	GLA inh pH 4.5	Rango complex inh	Rango dissoc inh	Structure
-8%	-1	0.2%	-14%	CCOc1ccc(C(=O)OCC(=O)Nc2cc(C)on2)cc1OCC
-7%	0	-2.5%	-5%	COCCNc1ccc(S(=O)(=O)N2CCCC2)cc1[N+](=O)[O-]
-3%	.	-0.5%	-14%	Cc1cc(C)n(-c2ccnc3cc(Cl)ccc23)n1
-10%	7	-4.8%	-8%	O=C(COC(=O)C1=COCCO1)Nc1ccccc1OC(F)F
-4%	-1	-0.8%	9%	CC(C)(C)[C@@H]1C=C(C(=O)N2CCN(Cc3ccccc3)CC2)O[C@H](OCCCCO)C1
-2%	2	3.4%	-2%	Cn1c(=O)c2cc(S(=O)(=O)NC(C(=O)NCc3ccccn3)c3ccccc3)ccc2n(C)c1=O (centres undefined)
-1%	-10	?	-12%	N#Cc1c(-c2c(Cl)cccc2Cl)noc1/C=C/Nc1ccc(C(=O)O)cc1
-4%	-9	-0.7%	1%	COc1ccc(C2C(C(C)=O)=C(C)Nc3ncnn32)cc1OC (centres undefined)
-52%	.	-2.0%	11%	Cc1ccsc1CN(C)C(=O)C1CCC(=O)N(CCc2cccc(F)c2)C1 (centres undefined)
0%	2	7.8%	-7%	CCOC(=O)c1cc2sccc2n1CC(=O)OC
-22%	2	-3.9%	-1%	CN1CCN(C(=O)c2ccc(COc3ccc(Cl)cc3Cl)cc2)CC1
-1%	-4	3.3%	30%	CN(CC(=O)Nc1cccc(F)c1)CC(=O)Nc1cccc([N+](=O)[O-])c1
0%	.	4.6%	10%	COc1ccccc1N1CCN(S(=O)(=O)c2c(C(=O)N3CCOCC3)c(C)n(C)c2C)CC1
-2%	-25	?	0%	O=C(O)COc1ccccc1/C=N/NC(=O)c1cc2ccccc2cc1O
.	.	0.1%	-10%	CC(C)CC(=O)N1CCN(S(=O)(=O)c2ccc(C3CCCCC3)cc2)CC1
-29%	-4	2.8%	11%	Cc1ccc(SCCC(=O)Nc2ccccc2Br)cc1
-38%	-3	0.0%	4%	CCNC(=S)NNC(=O)c1nn(C)c(C)c1Cl
-5%&4%	.	3.7%	1%	Cc1cccc(CN2C(=O)c3ccccc3Sc3ccc(C(=O)NCCCN4CCOCC4)cc32)c1
-44%	7	2.9%	-7%	Cc1ccc2nc(SCc3cn4cccnc4n3)[nH]c2c1
0%	4	1.2%	1%	Cn1c(=O)[nH]c(=O)c2c1nc(N1CCN(c3ccccc3)CC1)n2CCSc1ncccn1
-38%	4	-3.5%	-2%	COc1ccccc1OCc1nc2ccccc2[nH]1
0%	-16	-1.6%	10%	O=C(c1cccs1)N1CCC(N2CCN(c3ccccc3)CC2)CC1
-5%	8	0.2%	-11%	CC(=O)Nc1ccc(/C=N/NC(=O)c2cc3cc(C)ccc3nc2C)cc1
-37%	.	-1.7%	-16%	O=C(Nc1ccc(CN2CCOCC2)cc1)c1ccc(F)cc1
-11%	-5	-2.6%	0%	O=C(NNC(=S)Nc1cccc2ccccc12)c1cccc(Br)c1
-1%	-13	-1.0%	-3%	O=C(Nc1ccc(O)cc1)c1ccc2c(c1)C(=O)N(Cc1ccco1)C2=O
6%	3	3.9%	-19%	COc1cc(CCCN2C(=S)NC[C@@H]2CC2CCCCC2)cc(OC)c1OC
0%	5	.	.	CC(=O)OC[C@H]1O[C@@H](O/N=C/C[C@@H]2C=C[C@H](OC(C)=O)[C@@H](COC(C)=O)O2)[C@H](OC(C)=O)[C@@H](OC(C)=O)[C@@H]1OC(C)=O
-38%	.	0.0%	1%	COc1cccc(C(=O)Nc2ccc3[nH]c(=O)[nH]c3c2)c1OC
1%	3	-0.4%	-9%	CCOC(=O)CC1C(=O)NCCN1Cc1cccc(OC)c1 (centres undefined)
-6%	.	1.2%	-7%	CCOc1ccc(S(=O)(=O)NCCC(=O)Nc2nnc(C)s2)cc1
-2%	-8	0.9%	-14%	O=C1c2c(O)cc(O)cc2O[C@@]12c1c(cc(O)c3c1O[C@H](c1ccc(O)cc1)[C@@H](O)C3)O[C@@H]2c1ccc(O)cc1
.	.	-0.2%	0%	CCCCN1C(=O)N(CCc2ccc(F)cc2)S(=O)(=O)c2cc(C(F)(F)F)ccc21
11%	.	-0.6%	2%	O=S(=O)(NC1CC1)c1ccc(F)c(F)c1
-1%	-7	-6.2%	-18%	Cc1ccc(S(=O)(=O)N2CCOCC2)cc1C(=O)NCc1ccco1
-13%	-5	2.7%	-1%	COc1ccc(OC)c(C(=O)CSc2nnc(-c3cccs3)o2)c1

Part of the list above, reformatted:
Values run as follows: miR-21 reporter, GLA inh pH 4.5, Rango complex inh, Rango dissoc inh
> CCOC(=O)CC1C(=O)NCCN1Cc1cccc(OC)c1 (centres undefined)
  1%, 3, -0.4%, -9%
> CCOc1ccc(S(=O)(=O)NCCC(=O)Nc2nnc(C)s2)cc1
  -6%, ., 1.2%, -7%
> O=C1c2c(O)cc(O)cc2O[C@@]12c1c(cc(O)c3c1O[C@H](c1ccc(O)cc1)[C@@H](O)C3)O[C@@H]2c1ccc(O)cc1
  -2%, -8, 0.9%, -14%
> CCCCN1C(=O)N(CCc2ccc(F)cc2)S(=O)(=O)c2cc(C(F)(F)F)ccc21
  ., ., -0.2%, 0%

(continued)
miR-21 reporter	GLA inh pH 4.5	Rango complex inh	Rango dissoc inh	Structure
-21%	0	0.6%	-1%	COc1ccc(C(=O)Nc2cc(C(=O)NCCc3ccccc3)ccc2Cl)cc1
.	.	1.1%	-1%	COc1cc(NC(=O)c2[nH]cnc2C(N)=O)cc(C(=O)Nc2cccc(C(F)(F)F)c2)c1
.	.	-2.9%	2%	CCCn1c(N)c(C(=O)CSc2nnc3ccccn23)c(=O)[nH]c1=O
0%	-8	-0.9%	14%	COc1ccc(NC(C)=O)cc1NC(=O)CN1CCN(C2c3ccccc3-c3ccccc32)CC1
-2%	0	2.8%	-1%	CCCOc1ccc(-c2c(C(=O)N/N=C/c3ccc(OCC)cc3)nnn2-c2nonc2N)cc1
-1%	-11	1.3%	-6%	O=C(Nc1ccc2c(c1)CCC2)c1cc(=O)[nH]c2ccccc12
-11%	.	?	-10%	CCOC(=O)c1c(NC(=O)CSc2ncccn2)sc2c1CC(C)(C)NC2(C)C
.	.	-1.2%	3%	CN(C(=O)c1ccc(S(=O)(=O)N2CCCC2)cc1)C1CCS(=O)(=O)C1 (centres undefined)
-5%	-3	-1.6%	-9%	CCOC(=O)c1cc([N+](=O)[O-])sc1N
-6%	1	-4.0%	1%	Cc1ccc2nc(NC(=O)CS(=O)(=O)Cc3ccccc3)sc2c1
2%	.	-1.7%	2%	O=C(CSc1n[nH]c(-c2cccnc2)n1)Nc1ccccc1C(F)(F)F
-2%	.	-2.1%	-1%	CN(/N=C/c1ccncc1)C1=NCCN1

Part of the list above, bar-delimited:
Structure | miR-21 reporter | GLA inh pH 4.5 | Rango complex inh | Rango dissoc inh
COc1ccc(C(=O)Nc2cc(C(=O)NCCc3ccccc3)ccc2Cl)cc1 | -21% | 0 | 0.6% | -1%
COc1ccc(C2C(C(C)=O)=C(C)Nc3ncnn32)cc1OC (centres undefined) | -4% | -9 | -0.7% | 1%

(cont.)
miR-21 reporter	GLA inh pH 4.5	Rango complex inh	Rango dissoc inh	Structure
-4%	0	-0.2%	1%	N#Cc1ccc(CSc2nnc(NC(=O)CN3C(=O)C4CC=CCC4C3=O)s2)cc1 (centres undefined)
-19%	8	4.9%	-7%	O=C(Nc1ccccn1)N1CCOCC1
-45%	5	7.3%	-13%	CCCNC(=O)NCCC12CC3CC(CC(C3)C1)C2
-44%	5	?	-14%	CC(C)NC(=S)N/N=C/c1ccc(N2CCOCC2)cc1
.	.	0.2%	-5%	CC1CCCC(C)N1C(=O)COC(=O)c1cccc(S(=O)(=O)N(C)c2ccccc2)c1 (centres undefined)
.	.	0.8%	-14%	CC(C)[C@H](NC(=O)c1ccc(Cl)cc1Cl)C(=O)NNc1cccc(C(=O)O)c1
0%	5	-3.8%	19%	O=C1CN(c2ccccc2Cl)C(=O)CN1c1ccccc1Cl
.	.	-2.0%	5%	O=C(N[C@H]1C/C=C\C[C@@H](CC(=O)N(CCO)Cc2ccccc2)C(=O)N[C@H](Cc2c[nH]c3ccccc23)COC1=O)OCC1c2ccccc2-c2ccccc21
-3%	2	-2.7%	34%	O=C1CC(c2ccccc2)CN1C(=O)c1cncc(Br)c1 (centres undefined)
-5%	-1	.	.	CC(=O)c1cnc(Nc2nc(C)c3ccccc3n2)nc1C
-9%	-4	.	.	COc1ccc(-c2cc(OC(=O)c3ccc(F)cc3)c3c(C)oc(C)c3c(=O)c2)cc1
.	.	-1.7%	-8%	Fc1cc(F)cc(-c2c(-c3ccccc3)ncc3ccc(F)cc23)c1
-1%	.	4.6%	32%	O=C(NCc1ccccc1)c1ccc(CS(=O)(=O)Cc2ccc(F)cc2)o1
4%&-5%	3	-1.3%	-11%	COC(=O)c1nnn(CC(=O)NC(=O)Nc2c(C)cccc2C)c1C(=O)OC
9%	.	-1.3%	4%	CC(C)c1nnc(NC(=O)CCS(=O)(=O)c2ccccc2)s1
2%	-11	3.0%	-3%	CCCSc1oc(-c2ccco2)nc1S(=O)(=O)c1ccccc1
3%	.	0.4%	0%	CC[C@@]12C(=O)N(c3cccc(F)c3)C(=O)N1[C@H](c1cccc(C)c1)[C@@H]1C(=O)N(Cc3ccccc3)C(=O)[C@@H]12
6%	.	0.2%	-5%	Oc1ccc(-c2cnc(-c3ccc(O)cc3)nc2)cc1
.	.	4.4%	-13%	Cc1cccc(-n2c(C)nc3ccsc3c2=O)c1
2%&0%	.	2.0%	1%	Cn1c(=O)c(=O)n(C)c2cc(N3CCOCC3)c(NS(=O)(=O)c3ccc(F)c(Cl)c3)cc21
0%	-15	4.1%	2%	CCc1ccc(N=CC2=C(O)CC(c3ccco3)CC2=O)cc1 (centres undefined)
-2%	.	?	-15%	Cc1noc(/C=C/N(C)C)c1S(=O)(=O)N1CCCC(C(=O)NCCC2=CCCCC2)C1 (centres undefined)
-2%	7	2.4%	0%	COc1ccc(-c2n[nH]c(=S)n2N)c(OC)c1
-2%	1	1.4%	5%	Cc1ccc(C)c(N2CCN(C(c3ccc(N(C)C)cc3)c3nnnn3C(C)(C)C)CC2)c1 (centres undefined)
-3%	0	-0.6%	0%	O=C(O)CCCC(=O)Nc1cccc(C(F)(F)F)c1
.	.	0.6%	-7%	CSc1ccccc1NC(=O)CN(C)C(=O)c1ccc(NC(=O)c2cccs2)cc1
-7%	-1	8.9%	-14%	O=P1(O)C=C(c2ccccc2)NC(c2ccccc2)=C1
1%	0	-1.8%	3%	O=C1c2ccncc2C(=O)N1CO
-6%	.	-1.1%	-12%	Cc1nn(CC(=O)NCCCN2CCC(N3CCCCC3)CC2)c(=O)c2cc(-c3ccccc3)nn12
1%	0	0.3%	-14%	Cc1cc(NC(CC(C)C)C(=O)O)nc(Cc2ccccc2)n1 (centres undefined)
-1%	0	-2.5%	?	COC(=O)N/N=C/c1ccc(OC(=O)/C=C/c2ccco2)cc1
0%	.	-2.4%	-14%	O=C(CCC(=O)N1CCSc2ccccc21)NCc1cccc(Cl)c1
-1%	-8	-1.1%	19%	CSc1nc2ccccc2n1CC(=O)Nc1ccccc1
.	.	0.0%	2%	CC[C@]12C(=O)N(C)C[C@H]([C@@H]3C(=O)N(Cc4ccccc4)C(=O)[C@@H]31)N2C(=O)c1ccc(C(C)(C)C)cc1
-17%	8	-5.2%	-4%	Cc1ccc(-c2noc(CNCCCN(C)C)n2)cc1
-13%	.	3.9%	-5%	O=C(CN1CCc2cc3c(cc2C1)OCCCO3)Nc1cccc([N+](=O)[O-])c1
-20%	10	-0.3%	0%	CCOC(=O)CSc1nc2ccccc2n1C(=O)OCC
-3%	-7	3.6%	-5%	CCOP(=O)(OCC)C(Nc1cccc(C)c1)c1ccc(F)cc1 (centres undefined)
-44%	8	0.7%	-14%	N/C(=N\OC(=O)CCc1ccccc1)c1ccccc1Cl
-3%	2	0.2%	-5%	S=c1[nH]nc(-c2ccccn2)n1/N=C/c1ccco1
-9%	3	6.0%	17%	c1ccc(-c2onc3c2CCCC3)cc1
.	.	-0.5%	5%	COc1ccc(N2CCN(C(=O)COC(=O)Cc3c(F)cccc3Cl)CC2)cc1
.	.	-3.6%	2%	Cc1ccc(-c2csc3ncnc(N4CCN(C(=O)c5ccco5)CC4)c23)cc1

A portion of the library, so the mix of outcomes need not match the whole.
